High-throughput results deposited in PubChem by several laboratories.
RGS16-Gao = modulators of RGS16 binding to Galphao, primary screen, biochemical, human proteins, multiplexed bead flow cytometry. bead-based flow cytometry RGS16-Galphao binding, fluorescence; actives lie on both sides. binding response (% of control), % at 10 µM. hit rate 0.38% among 220,000. AID 1441, 2008;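 active means below 25% or above 175%, edge rows of some plates excepted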;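 further: Galphao activated by GDP with aluminum fluoride before binding; 100% = wells without compound and 0% = beads without RGS; some results beyond the cut were filed as inactive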
Insulin prom inh = inhibitors of insulin promoter-driven GFP, primary screen, imaging, TRM-6 cells (human fetal islet line), eGFP reporter, cell count. reporter expression induced with tamoxifen. inhibition, % at 2 µM. hit rate 0.9% among 130,000;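 active means inhibition above the mean plus 3 SD, with well images judged a real hit on visual review, cut at about 60% in these data, passing the limit was not always enough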
GALR2 ag = GALR2 receptor agonists, primary screen, cell-based. Galanin receptor type 2 (Homo sapiens), O43603. GALR2-expressing cells, agonist activation read-out. activation, %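 (tested at 5 µM)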. hit rate 0.48% among 140,000. AID 803, 2007;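 active means above mean plus 3 SD of all compounds, about 5% in these data, not always enough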;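 further: 0% = vehicle buffer wells and 100% = reference agonist at full effect; tested in CHO reporter cells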
PKD1 kinase inh = inhibitors of human PKD1 kinase, biochemical, fluorescence polarization. Serine/threonine-protein kinase D1 (Homo sapiens), Q15139. PKD1 kinase fluorescence polarization assay. inhibition, %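 (about 10 µM by stock and volumes)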. hit rate 0.056% among 200,000. AID 797, 2007;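 active means inhibition of 50% or more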;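 further: controls were vehicle for no effect and a reference inhibitor for full effect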
Target sequence (Q15139 whole entry, looked up): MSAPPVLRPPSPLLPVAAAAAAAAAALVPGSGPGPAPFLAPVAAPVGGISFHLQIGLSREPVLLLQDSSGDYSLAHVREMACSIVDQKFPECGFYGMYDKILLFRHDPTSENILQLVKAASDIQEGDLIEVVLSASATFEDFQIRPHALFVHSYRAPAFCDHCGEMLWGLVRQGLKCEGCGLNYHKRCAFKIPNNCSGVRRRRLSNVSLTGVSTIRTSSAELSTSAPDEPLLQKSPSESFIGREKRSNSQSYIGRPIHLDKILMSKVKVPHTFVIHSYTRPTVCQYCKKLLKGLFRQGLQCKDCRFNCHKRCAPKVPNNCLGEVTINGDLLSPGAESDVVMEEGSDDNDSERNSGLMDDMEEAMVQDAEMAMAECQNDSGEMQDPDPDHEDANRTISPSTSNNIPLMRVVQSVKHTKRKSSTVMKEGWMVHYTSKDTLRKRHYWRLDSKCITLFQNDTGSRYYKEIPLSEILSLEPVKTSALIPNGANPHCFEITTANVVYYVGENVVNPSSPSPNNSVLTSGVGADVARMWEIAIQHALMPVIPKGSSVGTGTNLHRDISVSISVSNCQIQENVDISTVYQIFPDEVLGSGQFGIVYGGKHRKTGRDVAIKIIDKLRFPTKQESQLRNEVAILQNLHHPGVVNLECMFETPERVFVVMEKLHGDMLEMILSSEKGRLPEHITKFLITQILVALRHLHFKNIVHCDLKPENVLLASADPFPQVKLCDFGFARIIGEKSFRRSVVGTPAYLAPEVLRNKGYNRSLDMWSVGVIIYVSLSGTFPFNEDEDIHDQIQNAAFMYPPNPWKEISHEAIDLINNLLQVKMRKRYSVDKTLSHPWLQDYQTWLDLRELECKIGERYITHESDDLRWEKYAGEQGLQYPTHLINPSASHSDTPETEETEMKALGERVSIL
HSV replic up = enhancers of HSV replication in host cells, fold increase, host cell viability. HSV replication augmentation in cells. maximum fold increase. hit rate 0.005% among 220,000;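 active means peak rise of 1.5-fold or more in the series; tested in PC3 cells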;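 further: first round at 10 µM; read as green reporter fluorescence; hits show the peak of a series up to 25 µM; 1 = signal of infected wells without compound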
Insulin prom inh cell count = further read-out of Insulin prom inh, marked with its call; normalized cell count, %; measured here: cell count, toxicity; reference of the scale not given here;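 cells exposed to compound for 48 h; stained nuclei by imaging scaled within each plate; lower means fewer cells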
HSV replic up primary fold = further read-out of HSV replic up, marked with its call; fold increase; compound at 10 µM; measured here: primary screen fold increase 10 uM; tested in PC3 cells;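 GFP signal in the first replicate; 1 = infected wells without compound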
The depositor's hits bear a star; i = inactive; nt = no result given; & = joins results of further samples.

SMILES | RGS16-Gao | Insulin prom inh | Insulin prom inh cell count | GALR2 ag | PKD1 kinase inh | HSV replic up | HSV replic up primary fold
Cc1nnc(NC(=O)c2ccc3c(c2)C(=O)N(CC2CCCO2)C3=O)s1 (stereo not given) | 107 | -4 | 60 | 3.1 | 1 | i | 0.76
O=C(NC(=S)Nc1ccc(N2CCCCC2)cc1)c1cccs1 | 102 | -11 | 136 | -3.6 | -2 | i | 0.86
O=C(c1ccc(S(=O)(=O)N2CCCC2)cc1)N(Cc1ccco1)C1CCS(=O)(=O)C1 (stereo not given) | 100 | nt | nt | nt | nt | i | 1
COc1ccc(NC(=O)CSc2nnc(-c3ccncc3)n2C)cc1 | 109 | 0 | 79 | nt | -2 | i | 0.96
CCSc1ccccc1C(=O)Nc1cc(C)on1 | 105 | -5 | 84 | 0.1 | -4 | i | 0.88
COc1ccc(C(=O)N/N=C/C(Br)=C/c2ccccc2)cc1 | 102 | nt | nt | 0.8 | -3 | nt | nt
COc1cc(NC(C)CCCN)c2ncccc2c1Oc1ccccc1 (stereo not given) | 131 | -47 | 117 | -0.1 | -1 | i | 1
Cc1ccc(-c2nc(NC(=O)CSc3nnc(C)s3)ns2)cc1 | 102 | nt | nt | -4.1 | -12 | i | 0.83
Cc1cc(Nc2cccc(Cl)c2C)n2ncnc2n1 | 101 | -60 | 159 | -2.1 | -3 | nt | nt
Cc1cccc(C)c1NC(=O)CS(=O)CC(=O)NC1CCN(Cc2ccccc2)CC1 (stereo not given) | 77 | -45 | 193 | -2.0 | 11 | i | 0.94
Fc1ccc(Nc2c3c(nc4ccccc24)CCC3)cc1 | 102 | nt | nt | nt | 10 | i | 0.81
O=C(C1=C[C@@H](c2coc3ccccc3c2=O)C[C@@H](OCc2ccc(CO)cc2)O1)N1CCCCCCC1 | 99 | nt | nt | nt | 3 | nt | nt

Structures from the list above with an aryl methoxy group, in the order listed:
SMILES | RGS16-Gao | Insulin prom inh | Insulin prom inh cell count | GALR2 ag | PKD1 kinase inh | HSV replic up | HSV replic up primary fold
COc1ccc(NC(=O)CSc2nnc(-c3ccncc3)n2C)cc1 | 109 | 0 | 79 | nt | -2 | i | 0.96
COc1ccc(C(=O)N/N=C/C(Br)=C/c2ccccc2)cc1 | 102 | nt | nt | 0.8 | -3 | nt | nt
COc1cc(NC(C)CCCN)c2ncccc2c1Oc1ccccc1 (stereo not given) | 131 | -47 | 117 | -0.1 | -1 | i | 1

(more compounds)
SMILES | RGS16-Gao | Insulin prom inh | Insulin prom inh cell count | GALR2 ag | PKD1 kinase inh | HSV replic up | HSV replic up primary fold
CCOc1ccc(-c2nnc(SCc3nnc(-c4ccccc4)o3)n2-c2ccccc2F)cc1 | 98 | nt | nt | -1.2 | 1 | i | 0.82
NC(=O)CC(NC(=O)Cc1cccc2ccccc12)c1ccc(NCC2CC2)c([N+](=O)[O-])c1 (stereo not given) | 102 | nt | nt | nt | nt | i | 0.73
O=C(c1ccc(Cl)cc1)c1cn[nH]c1-c1ccccc1O | 99 | 31 | 102 | -0.2 | 3 | i | 0.77
O=c1c(Cc2ccccc2)c(O)nc2n1CCCS2 | 295 | 13 | 119 | -4.4 | -8 | i | 0.96
COc1ccc(NC(C)=O)cc1NC(=O)CN1CCN(S(=O)(=O)c2ccc(C(C)C)cc2)CC1 | 104 | 19 | 130 | -3.8 | 9 | i | 0.97
CCC(C)C(=O)N1CCc2cc(-c3csc(N)n3)ccc21 (stereo not given) | 88 | -50 | 58 | -1.6 | 21 | i | 0.83
C=CCn1c(=O)/c(=C2/Sc3cc(OC)ccc3N2C)s/c1=C1\C(=O)N(CC)C(=S)N1C | 100 | -75 | 153 | nt | 1 | i | 0.93
O=C(/C=C/c1ccc2c(c1)OCO2)Nc1ccc(Cl)cn1 | 123 | 73* | 22* | nt | 1 | i | 0.79
O=C(Nc1cccc(C(F)(F)F)c1)C(=O)N1CCCCC1 | 101 | nt | nt | nt | 7 | i | 1.1
O=C(CN1C(=O)c2ccccc2C1=O)Nc1nnc(C2CCCO2)s1 (stereo not given) | 109 | -8 | 79 | -1.6 | -7 | i | 0.96
O=C(CN1CCCCCC1)Nc1cc(C(F)(F)F)ccc1Cl | 98 | nt | nt | nt | 5 | i | 1
COc1cc(S(=O)(=O)n2cnc(C)c2)ccc1Br | 97 | nt | nt | nt | 1 | i | 0.89
CCCn1nc([N+](=O)[O-])c(C(C#N)c2nc3ccccc3s2)c(Cl)c1=O (stereo not given) | 153 | 16 | 82 | -2.0 | -12 | i | 0.59
CCOc1ccc(NC(=O)N(CC(C)C)CC(C)C)cc1 | 93 | -17 | 59 | -1.6 | 2 | i | 0.87
CN(C)S(=O)(=O)c1cccc(NC(=O)COC(=O)COc2ccccc2[N+](=O)[O-])c1 | 101 | nt | nt | nt | 1 | i | 0.9
Cc1ccc2c(c1)N=C(c1ccc(F)cc1)CO2 | 55 | 22 | 127 | 0.2 | -9 | i | 0.87
CCCCCCCCC/C(=N\O)c1ccccn1 | 99 | 37 | 121 | 0.8 | -2 | i | 0.87
O=C(NCCc1ccccc1F)C(=O)Nc1nccs1 | 103 | 0 | 89 | -2.3 | 2 | i | 0.94
COC(=O)C1=NN(c2ccccc2)C2(S1)S/C(=C\c1ccccc1)C(=O)N2c1ccccc1 (stereo not given) | 102 | 30 | 105 | -3.4 | -8 | i | 0.94
CC(Sc1ccc2ccccc2n1)C(=O)O (stereo not given) | 108&99 | 26 | 188 | -0.8&-1.8 | 6&2 | nt | nt
Cc1ccc(/C=C/C(=O)NCc2ccco2)o1 | 86 | -48 | 98 | -0.9 | 3 | i | 1
Cc1ccc(CNC(=O)NCc2ccccc2)cc1 | 100 | 47 | 119 | nt | 5 | i | 1
Cc1ccc(C(=O)COC(=O)CCN2C(=O)C3C4CC(C(Br)C4Br)C3C2=O)cc1 (stereo not given) | 102 | 19 | 130 | 0.1 | -10 | i | 1
O=C(CSc1nccc(-c2cccs2)n1)Nc1ccc(F)c(Cl)c1 | 102 | nt | nt | nt | nt | i | 1
O=C(CSc1n[nH]c(=O)[nH]c1=O)Nc1ccc(C(=O)O)cc1 | 99 | nt | nt | nt | -5 | i | 1.1
O=C1CC(c2cccc([N+](=O)[O-])c2)c2ccc3ccccc3c2N1 (stereo not given) | 82 | nt | nt | -2.9 | 0 | i | 0.8
COc1ccc(S(=O)(=O)N2CCC(N3CCN(c4ccccc4)CC3)CC2)cc1 | 100 | -5 | 83 | -1.0 | 5 | nt | nt
CC1Cc2cc(/C(O)=C3/C(=O)C(=O)N(CCN4CCOCC4)C3c3cccc(O)c3)ccc2O1 (stereo not given) | 99 | -467 | 31 | -1.1 | -3 | i | 0.83
CC1=Nc2ccccc2/C1=C/c1sc(=O)n(CC(=O)N2CCCC2)c1O | 96 | nt | nt | -1.0 | -16 | i | 0.93
Cc1ccc(NC(=O)c2cc(-c3ccco3)on2)cc1C | 117 | nt | nt | -2.8 | -6 | i | 1.1
COc1ccc(/C(O)=C2\C(=O)C(=O)N(Cc3ccco3)C2c2cc(OC)ccc2OC)cc1 (stereo not given) | 21* | -35 | 124 | -1.5 | 5 | i | 0.9
COc1ccc(N2C(=O)c3ccccc3C2=O)cc1 | 100 | 50 | 121 | nt | -2 | i | 1
O=C(Nc1cccc(Cl)c1Cl)c1ccncc1 | 100 | 21 | 99 | -1.1 | -7 | i | 1
CCCCOC(=O)c1ccc(NC(=O)C(=O)NCc2ccncc2)cc1 | 100 | nt | nt | 0.0 | -1 | i | 0.98
O=S(=O)(Nc1nc2ccccc2nc1Nc1cccc(S(=O)(=O)N2CCCCC2)c1)c1ccccc1 | 103 | 35 | 104 | -0.9 | -5 | i | 0.88
Clc1cccc(OCc2nc(-c3ccncc3)no2)c1 | 101 | -16 | 147 | nt | -6 | i | 1
COc1ccc(/C=C/C(=O)OCC(=O)Nc2cc(C(N)=O)cc(C(N)=O)c2)cc1 | 101 | nt | nt | nt | -4 | i | 0.96
O=C(NNC1CC(=O)N(c2ccc(Cl)cc2)C1=O)c1ccccc1Cl (stereo not given) | 100 | nt | nt | nt | -11 | i | 1.1
CCN1CCN(CC(=O)Nc2sc3c(c2C#N)CCC3)CC1 | 97 | nt | nt | nt | -2 | i | 0.89
CC(=O)N1c2ccc(Cl)cc2C2OCCC2C1c1ccco1 (stereo not given) | 98 | nt | nt | nt | nt | i | 1
C=CCNC(=O)Nc1ccc(OCC)cc1 | 113 | 24 | 88 | 0.8 | 3 | i | 0.97
Cc1cc(=O)oc2cc(NC(=O)c3cc([N+](=O)[O-])ccc3N3CCOCC3)ccc12 | 98 | nt | nt | nt | 2 | i | 0.88
O=c1c2ccc(Cl)cc2[nH]c(=S)n1Cc1cccnc1 | 88 | -14 | 81 | 1.9 | 1 | nt | nt
CC(C(=O)N1CCN(C=O)CC1)N1C(=O)c2ccccc2C1=O (stereo not given) | 103 | 8 | 74 | -1.5 | -1 | i | 0.76
O=C(NCc1ccc(F)cc1)c1ccc(S(=O)(=O)Nc2cccc(C(F)(F)F)c2)cc1 | 31 | -34 | 123 | -0.1 | 0 | i | 0.94
CCSc1cc(C2C(C#N)=C(N)OC(C)=C2C(=O)OC)c(C)o1 (stereo not given) | 97 | 48 | 102 | -1.9 | -8 | i | 1
Cc1onc(C(=O)N2CCN(c3ccccc3F)CC2)c1-c1ccccc1Cl | 116 | -43 | 84 | -0.2 | -4 | i | 0.95
O=C(NC1CCN(Cc2ccccc2)CC1)C1CCCN(c2nnc(-n3cccc3)s2)C1 (stereo not given) | 105 | 20 | 92 | -1.7 | 0 | i | 1
Cc1ccc(/C=N/NC(=S)NC2CCS(=O)(=O)C2)cc1 (stereo not given) | 115 | -23 | 65 | -1.7 | 3 | i | 0.97
CCC(C)NC(=O)CN(c1ccc2c(c1)OCO2)S(=O)(=O)c1c(C)n[nH]c1C (stereo not given) | 107 | nt | nt | -2.0 | -3 | i | 0.93
COc1ccccc1-n1cnnc1SCC(=O)Nc1nc(C)c(Cl)cc1Cl | 103 | -41 | 75 | -1.5 | -4 | i | 0.93
CCCCNC(=O)N1CCN(Cc2cccc(F)c2)CC1 | 102 | nt | nt | nt | -4 | i | 0.97
COc1ccc(OC)c2sc(NC(=O)c3ccc(S(=O)(=O)N(C)C)cc3)nc12 | 95 | nt | nt | 0.1 | -8 | i | 0.56
N=C(N)SCc1ccc(O)c([N+](=O)[O-])c1 | 101 | nt | nt | nt | nt | i | 1.2
CCC12CN3CCN(CC(C3)/C1=N\NC(=O)c1ccc(Cl)cc1)C2 | 94 | -70 | 96 | nt | 0 | i | 0.92
c1cnc2c(c1)ccc1cccnc12 | 91&98 | 36 | 90 | -2.3 | -4&-16 | i | 0.71&0.6
Cc1ccc(S(=O)(=O)Oc2ccc(C)cc2/C=N/N=C2\NC(=O)C(C)S2)cc1 (stereo not given) | 105 | 79* | 41* | 1.7 | -2 | i | 0.96
CCn1c(NCc2cc(OC)ccc2OC)nc2ccccc21 | 101 | -64 | 58 | -1.4 | 16 | i | 0.83
COc1ccc(Cl)cc1-n1c(C)cc(C(=O)OCC(=O)N2CC(=O)Nc3ccccc32)c1C | 103 | nt | nt | -0.3 | 5 | i | 0.77
Cn1c(=O)cc(OCC(=O)Nc2ccccn2)c2ccccc21 | 107 | -14 | 94 | -0.3 | -4 | i | 0.67

Following part:
SMILES | RGS16-Gao | Insulin prom inh | Insulin prom inh cell count | GALR2 ag | PKD1 kinase inh | HSV replic up | HSV replic up primary fold
CCN(CC)c1ccc(N2C(=O)/C(=C\c3cccs3)SC2=S)cc1 | nt | -28 | 91 | 0.7 | -1 | i | 0.99
COc1ccc(NC(=S)Nc2ccccc2C(F)(F)F)cc1 | 106 | -25 | 110 | nt | 4 | i | 0.88
Cc1ccc(-c2noc(CCCN3C(=O)c4ccccc4C3=O)n2)cc1 | 101 | -38 | 78 | -0.1 | -2 | i | 0.91
Cc1cccc(OCC(O)CN2C(C)(C)CC(O)CC2(C)C)c1 (stereo not given) | 102 | -6 | 191 | -2.1 | -23 | i | 1
CCOC(=O)c1ccc2c(c1)nc(SCC(=O)N1CCCCC1)n2CC | 103 | -3 | 109 | 2.4 | -5 | i | 0.94

4 entries out of the list, arranged by molecular weight, ascending.
SMILES | RGS16-Gao | Insulin prom inh | Insulin prom inh cell count | GALR2 ag | PKD1 kinase inh | HSV replic up | HSV replic up primary fold
Cn1c(=O)cc(OCC(=O)Nc2ccccn2)c2ccccc21 | 107 | -14 | 94 | -0.3 | -4 | i | 0.67
Cc1ccc(-c2noc(CCCN3C(=O)c4ccccc4C3=O)n2)cc1 | 101 | -38 | 78 | -0.1 | -2 | i | 0.91
CCN(CC)c1ccc(N2C(=O)/C(=C\c3cccs3)SC2=S)cc1 | nt | -28 | 91 | 0.7 | -1 | i | 0.99
COc1ccc(Cl)cc1-n1c(C)cc(C(=O)OCC(=O)N2CC(=O)Nc3ccccc32)c1C | 103 | nt | nt | -0.3 | 5 | i | 0.77
